# KCNQ2 enhance: KCNQ2 (rat) channel potentiation. CHO-K1 KCNQ2, FluxOR thallium flux fluorescence; hits give high values. B-score at 10 µM. 0.54% of 310,000 active. AID 2239;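 active = fluorescence ratio B-score at least 3 SD of library B-scores, with initial fluorescence B-score within 3 SD, cut at about 5.3 in these data; same plate scores as AID 2156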;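 note: B-score of peak minus minimum over baseline fluorescence ratio after K+ and Tl+ stimulus; positive B-score means potentiation of KCNQ2 with more thallium influx and brighter signal; only the inactives scoring about 0 or higher are listed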
# Target sequence (O88943 whole entry, looked up): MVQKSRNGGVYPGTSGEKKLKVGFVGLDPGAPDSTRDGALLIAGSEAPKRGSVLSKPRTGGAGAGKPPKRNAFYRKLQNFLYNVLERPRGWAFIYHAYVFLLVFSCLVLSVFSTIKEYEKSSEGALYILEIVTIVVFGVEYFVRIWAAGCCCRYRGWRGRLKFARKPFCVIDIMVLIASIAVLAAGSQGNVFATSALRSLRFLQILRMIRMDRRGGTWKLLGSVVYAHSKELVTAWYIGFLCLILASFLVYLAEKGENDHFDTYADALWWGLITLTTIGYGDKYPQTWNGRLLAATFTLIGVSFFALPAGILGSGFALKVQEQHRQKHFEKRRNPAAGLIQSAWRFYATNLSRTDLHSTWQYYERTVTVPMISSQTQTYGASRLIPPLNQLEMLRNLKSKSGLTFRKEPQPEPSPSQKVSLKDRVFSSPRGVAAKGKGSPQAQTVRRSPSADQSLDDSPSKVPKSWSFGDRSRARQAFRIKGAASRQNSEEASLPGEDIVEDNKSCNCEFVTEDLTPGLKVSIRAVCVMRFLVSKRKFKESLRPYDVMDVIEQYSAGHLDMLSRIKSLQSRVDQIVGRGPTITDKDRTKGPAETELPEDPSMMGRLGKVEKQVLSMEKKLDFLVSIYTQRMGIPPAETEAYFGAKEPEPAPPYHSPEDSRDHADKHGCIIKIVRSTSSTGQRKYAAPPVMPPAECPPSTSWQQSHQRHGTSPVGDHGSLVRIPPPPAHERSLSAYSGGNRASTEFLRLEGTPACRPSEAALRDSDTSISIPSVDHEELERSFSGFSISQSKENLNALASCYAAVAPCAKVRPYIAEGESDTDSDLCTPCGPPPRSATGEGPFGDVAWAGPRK
# KCNQ2 enhance baseline: recorded beside KCNQ2 enhance, whose call it bears; B-score; compound at 10 µM; measured here: initial fluorescence intensity artifact check;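 brightness before thallium and not channel activity; 0 = typical well and far values either way flag optical interference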
# * = called active by the depositor.
SMILES,KCNQ2 enhance,KCNQ2 enhance baseline
CC(C)(C)CC(=O)Nc1ccc(S(=O)(=O)N2CCCC2)cc1,0.97,-1.06
COc1ccc(Cl)cc1CN1CCOCC1,1.12,-0.06
CCOC(=O)c1csc(N/N=C2\CCCc3ccccc32)n1,5.46*,-1.33*
Oc1ccc(C(=S)N2CCCCCC2)cc1,0.04,-0.1
O=C(NCC1(O)CCCCC1)C1CCC(=O)N(CCc2ccccc2)C1 (stereo unspecified),0.18,0.43
CCOC(=O)CN1C(=O)S/C(=C/c2ccc(OCc3ccc(C(=O)O)cc3)cc2)C1=O,0.32,-0.25
CCOc1ccc(CCNC(=O)c2c(C)nn(-c3ccccc3)c2Cl)cc1OCC,0.5,0.66
Cc1ccc(CNCc2cccnc2)cc1,0.71,0.6
CN1C(C(=O)NCC2CC2)CC2Cn3c(nc4cc(Cl)c(Cl)cc43)C21 (stereo unspecified),0.22,0.34
Cc1nc(NC(=S)NC(=O)c2ccccc2)sc1C,1.13,-0.47
Cc1c(Nc2ccc3nonc3c2[N+](=O)[O-])c(=O)n(-c2ccccc2)n1C,1.02,-0.86
CC(C(=O)NCCC1=CCCCC1)c1ccc([N+](=O)[O-])cc1 (stereo unspecified),1.45,0.19
CCOC(=O)C(C)Oc1cccc2c(=O)n(CC(=O)N3CCN(C(=O)OCC)CC3)ccc12 (stereo unspecified),0.6,-0.56
Cc1cc(NC(=O)CCC(=O)N(CC(=O)NC2CCCC2)Cc2cccs2)no1,1.49,-2.34
CCOC(=O)Cc1csc(NC(=O)CN2CCOCC2)n1,0.54,-3.16
Clc1ccc(N/N=C/c2cccnc2)cc1,1.66,-0.34
O=C(N/C=C/c1ccco1)Nc1cccc(Cl)c1,13.5*,-0.35*
C[C@H](N)C(=O)N1CCC(C(=O)N[C@@H](Cc2ccccc2)C(=O)Nc2ccc(F)cc2)CC1,1.05,-0.35
CCC(C)[C@H](NC(=O)NCc1ccco1)C(=O)OC (stereo partly specified),2.45,-1.67
CNC(=O)N(O)C1N(/N=C/c2cccs2)C(=S)SC1(C)C (stereo unspecified),1.78,0.25
O=C(O)c1ccccc1CSC1=NCCS1,0.15,1.12
CCc1cc2ccccc2nc1Cl,0.34,1.19
CC12CN3CC(C)(CN(C1)C3c1ccc(Br)cc1O)C2 (stereo unspecified),0.4,0.29
O=P(COCCOCP(=O)(c1ccccc1)c1ccccc1)(c1ccccc1)c1ccccc1,0.62,0.16
COC(=O)c1sccc1NC(=O)Nc1cccc(OC)c1,1.48,0.21
CCCCCOc1ccc(N2C(=O)CC(N(O)c3ccccc3)C2=O)cc1 (stereo unspecified),0.73,-1.21
Cc1cc(NC(=O)CN2C(=O)/C(=C/c3cccc(Br)c3)SC2=S)no1,0.99,-0.49
CCOC(=O)c1cnc(Nc2nc3ccccc3o2)nc1CSc1nnc(C)s1,0.71,1.09
Cc1cc(=O)n2nc(N3CCC(C(=O)N4CCN(C)CC4)CC3)sc2n1,0.12,-0.28
O=C(Cn1nnc(-c2ccccc2Cl)n1)NCc1ccc2c(c1)OCO2,0.34,-0.08
COc1ccc(N(CC(=O)NCc2ccccc2OC)S(=O)(=O)c2c(C)nn(C)c2C)cc1,1.48,0.95
CCC(=O)Nc1ccc(-c2csc(C)n2)cc1,1.54,0.08
CC1Oc2ccccc2N(CC(=O)Nc2ccccc2F)C1=O (stereo unspecified),0.02,0.96
CC(C)Cc1nnc(NC(=O)c2cc([N+](=O)[O-])ccc2N2CCOCC2)s1,1.69,-1.92
Cc1ccccc1Cn1cc(NC(=O)c2noc(C(C)C)c2[N+](=O)[O-])cn1,1.8,-1.7
CCS(=O)(=O)N1CCCC(C(=O)NCCc2ccccc2)C1 (stereo unspecified),0.39,-0.31
Cc1sc(=NC(=O)c2ccco2)n(C)c1-c1ccc(F)cc1,0.1,1.27
COCCNC(=O)CC(c1ccccc1)c1ccccc1,1.04,-1.44
O=C(Nc1ccc(S(=O)(=O)Nc2cnc3ccccc3n2)cc1)c1cc(F)c(F)cc1Cl,2.4,0.68
COc1ccc(OC)c(NC(=O)CSc2nnc(-c3cnccn3)n2C)c1,1.46,0.21
CCC(C(=O)Nc1ccc2[nH]ncc2c1)c1ccccc1 (stereo unspecified),1.13,-1.24
O=C(CC12CC3CC(CC(C3)C1)C2)NC1CC1,2.01,0.86
Cc1cccc(C(C(=O)NC2CCCC2)N(C(=O)c2csnn2)C2CCCC2)c1 (stereo unspecified),0.1,2.28
CCC(C)NS(=O)(=O)c1ccc(OCC(=O)NCc2ccc3c(c2)OCO3)cc1 (stereo unspecified),0.18,0.66
O=C(N/N=C/c1ccccn1)c1ccc(Cl)c(Cl)c1,1.33,0.29
COc1ccc(C(=O)NCc2cn3cccc(C)c3n2)cc1OC,0.09,0.06
Cn1cc(CN2CCN(CCO)CC2)c(-c2ccc(Oc3ccccc3)cc2)n1,0.72,-1.38
CCCC(=O)Nc1c(-c2cccs2)c(=O)c2ccccc2n1CC,0.65,0.35
COC(=O)c1sc2nc(N3CCCCC3)c3c(c2c1N)CCCC3,2.04,1.38
Cc1ccc(-n2c(SCC(=O)NC3CCCCC3)nc3c(c2=O)SCC3)cc1,0.13,-0.93
O=C(c1ccccc1)c1cc[n+]([O-])cc1,0.99,0.67
CCCOc1ccc(NC(=O)CC2C(=O)N(CC)C(=S)N2CCNC(C)=O)cc1 (stereo unspecified),0.3,0.63
C=CCN(C(=O)Cn1c(C(=O)OC)cc2oc(C)cc21)c1ccccc1,0.84,-1.75
Cc1ccc(-c2nc(CN(C)C(C3CC3)C3CC3)c(C)o2)cc1,1.04,-0.17
Cn1nnnc1SCC(=O)N1CCN(C(=O)c2ccco2)CC1,0.48,0.19
C=CCNC(=O)NC(=O)COC(=O)c1ccccc1Sc1ccc(C(F)(F)F)cc1[N+](=O)[O-],0.02,0.84
OCC[C@@H]1C[C@@H](O)[C@H](O)[C@@]2(CCCCO2)O1,1.55,0.09
CC(C)(O)C#Cc1ccc(C(=O)N2CCN(c3ccc(F)cc3)CC2)cc1,0.16,-0.87
COc1ccc2nc(Nc3ccccc3OC)sc2c1,0.36,-1.46
Cc1cccc(/C(N)=N/OC(=O)COc2ccc(Cl)c(C)c2)c1,0.04,-0.19

# Six compounds picked at random from those above:
SMILES,KCNQ2 enhance,KCNQ2 enhance baseline
Cn1nnnc1SCC(=O)N1CCN(C(=O)c2ccco2)CC1,0.48,0.19
O=C(c1ccccc1)c1cc[n+]([O-])cc1,0.99,0.67
COC(=O)c1sc2nc(N3CCCCC3)c3c(c2c1N)CCCC3,2.04,1.38
Cc1cccc(/C(N)=N/OC(=O)COc2ccc(Cl)c(C)c2)c1,0.04,-0.19
Cn1cc(CN2CCN(CCO)CC2)c(-c2ccc(Oc3ccccc3)cc2)n1,0.72,-1.38
C=CCNC(=O)NC(=O)COC(=O)c1ccccc1Sc1ccc(C(F)(F)F)cc1[N+](=O)[O-],0.02,0.84

# Continuation:
SMILES,KCNQ2 enhance,KCNQ2 enhance baseline
Cc1ccn2c(CN(C)CCn3nc(C)cc3C)c(C(=O)N3CCCCCC3)nc2c1,1.82,0.15
COc1cc(C(C)=O)ccc1OCC(O)CN(CCO)Cc1ccccc1 (stereo unspecified),0.91,-0.01
CC(=O)Oc1ccc(-c2cccc(C(=O)NCC(=O)O)c2)cc1,0.5,0.77
Cc1c(NC(=O)CSc2nncn2-c2ccccc2)c(=O)n(-c2ccccc2)n1C,0.95,-1.99
C=CCc1cc(/C=N/n2cnnc2)cc(OCC)c1O,0.04,-1
O=C(O)CC(C(=O)O)c1cn(Cc2ccccc2)c2ccccc12 (stereo unspecified),0.08,0
Nc1ccc(Nc2nc(-c3cccs3)cs2)cc1,0.31,-0.93
C/C(=N\N=C(N)N)c1ccc(Cl)cc1,0.33,0.2
Cc1ccc(-n2nc(C)c3cc(C(=O)O)sc32)cc1,0.21,-1
O=c1[nH]c2ccccc2c(O)c1Cc1ccccc1,1.52,-0.69
COc1ccc(-n2nnnc2SCC(N)=O)cc1,0.45,1.75
Cc1ccc(F)cc1S(=O)(=O)NCc1ccc(N2CCN(C)CC2)cc1,0.46,0.58
O=C(COC(=O)c1ccc(S(=O)(=O)N2CCCC2)cc1)Nc1ccc(N2CCOCC2)cc1,0.59,-1.13
CCn1c(-c2nn(C)c(C)c2Cl)n[nH]c1=S,0.07,0.05
Cc1cccn2c(=O)c3cc(C(=O)NC4CCCC4)c(=N)n(CCCN4CCOCC4)c3nc12,0.38,0.24
O=C(CCNC(=O)Cn1ccc2ccccc2c1=O)NCc1ccc(F)cc1Cl,0.87,0.18
COc1cc(OC)cc(C(=O)Nc2ccc(Nc3ccccc3)cc2)c1,2.04,2.21
Cc1cc(C)n(Cc2cc(C(=O)O)c3ccccc3n2)n1,2.11,0.51
Cc1ccc(-n2cc(CNC(C)c3cnn(C)c3C)c(-c3ccc(F)cc3)n2)cc1 (stereo unspecified),1.62,-0.54
Cc1ncc([N+](=O)[O-])n1CCO,0.35,-0.92
Cc1ccnc(SCC(=O)n2c3c(c4ccccc42)CC(C)CC3)n1 (stereo unspecified),1,0.41
CCOc1cc(C(=O)NC)cc(OCC)c1OCC,1.17,0.1
CC1CCc2cc(F)ccc2N1C(=O)c1cnc2sccn2c1=O (stereo unspecified),0.22,0.04
CC(=O)c1cccc(S(=O)(=O)N2CCC(n3nnc4cc(F)ccc43)CC2)c1,0.03,0.02
C/C=C(\C)CN1CCC(n2nccc2NC(=O)CCCc2ccccc2)CC1,1.36,0.69
CCn1nc(C(=O)OCC(=O)N2CC(=O)Nc3ccccc32)c2ccccc2c1=O,0.72,0.33
CC(NC(=O)C(=O)N1CCCCC1)C(c1cccs1)N1CCN(c2ccccc2F)CC1 (stereo unspecified),0.34,0.02
O=C(COC(=O)CCC1CCCC1)Nc1ccccc1Sc1ccccc1,0.66,-0.37
Cc1cc(-c2ccc(F)cc2)nc2cc(C(N)=O)nn12,0.24,-0.06
CCOC(=O)N1CCN(C2CC(=O)N(c3ccc(F)cc3)C2=O)CC1 (stereo unspecified),0.02,1.71

# Whole records, quoted from the list. Values in the order: KCNQ2 enhance, KCNQ2 enhance baseline
# CC(=O)c1cccc(S(=O)(=O)N2CCC(n3nnc4cc(F)ccc43)CC2)c1 is entered as 0.03, 0.02
# Cc1cc(-c2ccc(F)cc2)nc2cc(C(N)=O)nn12 is entered as 0.24, -0.06
# C/C=C(\C)CN1CCC(n2nccc2NC(=O)CCCc2ccccc2)CC1 is entered as 1.36, 0.69
# CCOc1cc(C(=O)NC)cc(OCC)c1OCC is entered as 1.17, 0.1
# Cc1ncc([N+](=O)[O-])n1CCO is entered as 0.35, -0.92

# In the list so far, these contain an NH in an aromatic ring.
SMILES,KCNQ2 enhance,KCNQ2 enhance baseline
CCC(C(=O)Nc1ccc2[nH]ncc2c1)c1ccccc1 (stereo unspecified),1.13,-1.24
O=c1[nH]c2ccccc2c(O)c1Cc1ccccc1,1.52,-0.69
CCn1c(-c2nn(C)c(C)c2Cl)n[nH]c1=S,0.07,0.05

# Quoted from the listing.
# CC(NC(=O)C(=O)N1CCCCC1)C(c1cccs1)N1CCN(c2ccccc2F)CC1 (stereo unspecified) in KCNQ2 enhance: 0.34
# O=C(CCNC(=O)Cn1ccc2ccccc2c1=O)NCc1ccc(F)cc1Cl in KCNQ2 enhance baseline: 0.18

# Next results follow:
SMILES,KCNQ2 enhance,KCNQ2 enhance baseline
Nc1nonc1-n1nnc(C(=O)N/N=C/c2ccc(O)cc2)c1COc1ccc(F)cc1,0.48,0.59
CC(=O)Nc1ccc(S(=O)(=O)N[C@@H](C)C(=O)Nc2ccc(N3CCOCC3)cc2)cc1,0.07,0.41
CCOC(=O)C1(Cc2ccccc2C)CCCN(C(=O)c2cc(C3CC3)[nH]n2)C1 (stereo unspecified),0.57,0.1
O=C(CSc1ccccc1)NCCCc1ccccc1,0.63,-0.45
Nc1ccc(C(=O)N/N=C/c2cn(Cc3ccc(F)cc3)c3ccccc23)cc1,1.66,0.02
COc1ccc(CN2C(=O)CSCC2=O)cc1OC,0.18,1.19
COc1ccc(Cl)cc1C(=O)Nc1ccncc1,2.44,-0.07
COC(=O)C1=C(C)Nc2ncnn2C1c1cccnc1 (stereo unspecified),0.3,-0.51
O=S(=O)(Nc1ccccn1)c1cccc(S(=O)(=O)c2ccc(Br)cc2)c1,0.33,2.06
Cc1ccc(C2(C)NC(=O)N(CC(=O)Nc3cc(C)on3)C2=O)cc1 (stereo unspecified),0.1,-0.01

# A portion of the library; the hit share may differ from the screen's.
